Source: PubChem BioAssay (Broad Institute)
STK33 inh = blocks human STK33 kinase activity; purified STK33, MBP phosphorylation, ADP-Glo luminescence; inhibition, % at 10 µM; 320,000 tested, 0.073% active;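 active means inhibition at or above 25%, using the most active replicate where run in duplicate; inactive means inhibition below 25%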
Target sequence (Q9BYT3 whole entry, looked up): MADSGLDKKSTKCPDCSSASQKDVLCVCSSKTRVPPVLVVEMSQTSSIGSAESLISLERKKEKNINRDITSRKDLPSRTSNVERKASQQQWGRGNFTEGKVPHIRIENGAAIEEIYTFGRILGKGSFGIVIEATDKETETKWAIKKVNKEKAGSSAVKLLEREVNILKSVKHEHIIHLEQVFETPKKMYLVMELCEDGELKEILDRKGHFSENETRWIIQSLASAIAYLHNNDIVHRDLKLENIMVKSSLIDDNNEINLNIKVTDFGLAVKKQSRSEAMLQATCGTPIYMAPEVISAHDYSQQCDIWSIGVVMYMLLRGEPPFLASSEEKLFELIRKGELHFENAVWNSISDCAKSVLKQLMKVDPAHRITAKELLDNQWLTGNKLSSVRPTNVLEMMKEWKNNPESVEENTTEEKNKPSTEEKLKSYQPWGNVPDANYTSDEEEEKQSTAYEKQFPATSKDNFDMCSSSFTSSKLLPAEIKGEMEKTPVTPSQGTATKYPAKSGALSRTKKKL
The depositor's hits bear a star. An excerpt; most or all hits stand in other tables.

SMILES | STK33 inh
CCOc1ccc(C(=O)NCC(=O)NCC(c2ccc(OC)cc2)N2CCOCC2)cc1OCC (stereo not given) | -1.0
COc1ccc(-c2cc(C(=O)N3CCN(c4ncccn4)CC3)c3ccccc3n2)c(OC)c1 | 0.6
Cc1c(-c2nc(N)nc(Nc3ccccc3)n2)oc2ccccc12 | -0.7
O=c1[nH]c(CSc2nnc(-c3ccncc3)n2Cc2ccco2)nc2ccccc12 | 0.0
O=[N+]([O-])c1ccc(C(=S)N2CCN(c3ccc(F)cc3)CC2)cc1 | -0.7
CN(Cc1ccccc1)C1CCCN(C(=O)c2ccc(Cl)s2)C1 (stereo not given) | -1.9
Cc1c(N2C(=O)CSC2c2ccc([N+](=O)[O-])cc2)c(=O)n(-c2ccccc2)n1C (stereo not given) | -0.8
COc1cc(C(=O)Nc2cc(C(F)(F)F)ccc2Cl)cc(OC)c1OC | 1.0
COc1cc(/C=C/C(C)=O)cc(OC)c1OC | 0.1
COc1cccc2sc(N3CCN(C(=O)c4ccco4)CC3)nc12 | 0.0
CCCCN(C1CCS(=O)(=O)C1)S(=O)(=O)c1ccc(OC)c(OC)c1 (stereo not given) | 0.5
Cc1ccc(S(=O)(=O)/N=C(/Nc2ccc(F)cc2F)c2ccc(F)cc2)cc1 | -1.6
Cc1ccc(/C=N/NC(=O)CSc2nc3ccccc3n2C)s1 | 0.4
CCc1ccc(NC(=O)Nc2c(C)n(C)n(-c3ccccc3)c2=O)cc1 | -0.4
O=S(=O)(Nc1ccc2c(c1)OCO2)c1ccc(Cl)cc1F | -0.8
CCOC(=O)Cn1c(=NC(=O)CC)sc2c(C)cc(C)cc21 | -2.4
O=C1CCN(C(=O)Nc2cccc(Cl)c2)N1 | 7.4
CC(=O)Nc1cccc(C(=O)OC(C)C(=O)NCc2ccc3c(c2)OCO3)c1 (stereo not given) | -0.9
CC(=O)Nc1cccc(NC(=O)c2cc(-c3cccnc3)nc3ccc(Br)cc23)c1 | -1.1
Cc1cc2c(cc(C(=O)NCCCN3CCOCC3)n2Cc2ccc(Cl)cc2)o1 | -0.5
O=C(Nc1ccc(Br)cn1)c1cccc2c1-c1ccccc1C2=O | -0.9
COc1cc(-c2csc(CCn3nc(C)cc3C)n2)cc(OC)c1OC | -0.1
CNC(=O)c1cc2c(cn1)[nH]c1ccccc12 | 1.1
CC1(C)OC(=O)C=C[C@]2(C)[C@H]3CC[C@@]4(C)[C@H](c5ccoc5)OC(=O)[C@H]5O[C@]54[C@]3(C)C(=O)C[C@@H]12 | -0.3
CCOCCCNC(=O)C(NC(=O)Cc1c[nH]c2ccccc12)c1ccc(OC)cc1 (stereo not given) | -0.2
CC(C)COc1ccc(C(=O)N2C(=O)c3ccc(N)cc3C2=O)cc1 | -1.1
O=C(NCc1cccnc1)C1CC(c2cccc(Br)c2)=NO1 (stereo not given) | -0.2
CSc1nc(C)cc(-n2cc(F)c(=O)[nH]c2=O)n1 | -2.8
CCC(Sc1nnc(C)c(=O)[nH]1)C(=O)Nc1cccc2ccccc12 (stereo not given) | -0.8
COc1ccc(N2CCN(C(=O)CCc3ccc(S(=O)(=O)NC(C)C)cc3)CC2)cc1 | -1.2

Some of these compounds in order of the STK33 inh value, ascending:
canonical_smiles,STK33 inh
CCOc1ccc(C(=O)NCC(=O)NCC(c2ccc(OC)cc2)N2CCOCC2)cc1OCC (stereo not given),-1.0
Cc1c(-c2nc(N)nc(Nc3ccccc3)n2)oc2ccccc12,-0.7
O=C(NCc1cccnc1)C1CC(c2cccc(Br)c2)=NO1 (stereo not given),-0.2
O=C1CCN(C(=O)Nc2cccc(Cl)c2)N1,7.4

The list continues:
SMILES | STK33 inh
CN(Cc1ccccc1)C(=O)c1ccccc1C(=O)O | -0.6
COCCCNC(=S)N1CCN(c2ccc([N+](=O)[O-])cc2)CC1 | -0.3
CN(C(=O)Cn1nc(C(=O)O)c2ccccc2c1=O)C1(C#N)CCCCC1 | -1.5
N#Cc1c(-c2ccccc2Cl)cc(C2CC2)nc1N | -1.2
COC(=O)c1cc(C(=O)Nc2nnc(C3CC3)s2)cc([N+](=O)[O-])c1 | -0.3
Cn1c(=O)c2cc(S(=O)(=O)NC(Cc3ccccc3)C(=O)NCC3CCCO3)ccc2n(C)c1=O (stereo not given) | -0.7
CCN(c1ccccc1)S(=O)(=O)c1ccc(Cl)nc1 | -0.8
Cc1ccc(-c2nnc(SCC(=O)N3CCN(c4ccccc4)CC3)o2)cc1 | -3.2
CCCOc1ccc(-c2nc(C#N)c(N3CCN(C)CC3)o2)cc1 | -0.6
CCOc1ccc(NC(=O)N2CCC(C(=O)c3ccc(F)cc3)CC2)cc1 | -1.4
CCOc1ccccc1NC(=O)c1cc(SC)ccc1Cl | -0.7
CC1=NNC(=O)C1CC(=O)N/N=C/c1sccc1C (stereo not given) | 0.3
CC(C)(C)c1nc2scc(-c3ccc(Cl)cc3)c2c(=O)o1 | -1.9
O=C(CSc1nc2ccccc2nc1N1CCOCC1)Nc1ccccc1F | -3.0
COC(=O)C1=C(C)N(Cc2ccc(C)cc2)C(=O)/C1=C\c1ccc(O)c(OC)c1 | -0.7

A different layout for some results above.
canonical_smiles,STK33 inh
O=C(CSc1nc2ccccc2nc1N1CCOCC1)Nc1ccccc1F,-3.0
COCCCNC(=S)N1CCN(c2ccc([N+](=O)[O-])cc2)CC1,-0.3
COC(=O)C1=C(C)N(Cc2ccc(C)cc2)C(=O)/C1=C\c1ccc(O)c(OC)c1,-0.7
CCOc1ccccc1NC(=O)c1cc(SC)ccc1Cl,-0.7

Look-ups from the results shown.
O=C(NCc1cccnc1)C1CC(c2cccc(Br)c2)=NO1 (stereo not given) in STK33 inh: -0.2
CCCOc1ccc(-c2nc(C#N)c(N3CCN(C)CC3)o2)cc1 in STK33 inh: -0.6
CCC(Sc1nnc(C)c(=O)[nH]1)C(=O)Nc1cccc2ccccc12 (stereo not given) in STK33 inh: -0.8
CN(Cc1ccccc1)C(=O)c1ccccc1C(=O)O in STK33 inh: -0.6
CC(=O)Nc1cccc(C(=O)OC(C)C(=O)NCc2ccc3c(c2)OCO3)c1 (stereo not given) in STK33 inh: -0.9
CSc1nc(C)cc(-n2cc(F)c(=O)[nH]c2=O)n1 in STK33 inh: -2.8

Next part
SMILES | STK33 inh
Cn1nnnc1SCC(=O)N1c2ccccc2Sc2ccc(Cl)cc21 | -0.6
COc1ccccc1CNC(=O)c1csc2c1CCCC2 | -2.1
COc1cc(NC(=O)c2cccs2)c(OC)cc1NC(=O)c1cccs1 | -1.2
CCCN(CC1CC1)S(=O)(=O)c1ccc(-n2cnnn2)c(OC)c1 | -3.7
CCCCc1nnc(NC(=O)CCS(=O)(=O)Cc2ccccc2)s1 | -0.4
CCOC(=O)c1ccc(N2C(=O)C(O)=C(C(C)=O)C2c2ccc(O)c(OC)c2)cc1 (stereo not given) | 0.8
Cc1cnc(NC(=O)CSc2c(Cl)cccc2Cl)s1 | -2.2
COc1ccc(C(=O)NCCc2cc3c(OC)ccc(OC)c3[nH]c2=O)cc1OC | -0.4
CC(C)N=C1CC(C)(C)CC(=O)/C1=C(/O)CCCN1C(=O)c2ccccc2C1=O | -1.1
Nc1c(Cl)ncnc1NCc1cccnc1 | -0.1
O=C(O)Cc1csc(-c2ccc(F)cc2)n1 | -1.2
Cn1cc(/C=N/NC(=O)c2cccc([N+](=O)[O-])c2)c2ccccc21 | -0.4
Cc1occc1C(=O)NC1CCCCCCC1 | -2.2
O=C(Cn1cnc([N+](=O)[O-])n1)NC1CC1 | -0.7
O=C(Nc1cc(C(F)(F)F)ccc1-n1cncn1)c1ccc(-c2ccccc2)cc1 | -3.2
CC[n+]1c(S(=O)(=O)[O-])ccc2ccc(C)cc21 | -0.2
O=S(=O)(NC1CCCCC1NS(=O)(=O)c1ccc(F)cc1)c1ccc(F)cc1 (stereo not given) | -3.2
Cc1ccc(OCC(=O)NNC(=O)CSc2nnc(-c3ccc(C)cc3)n2C)cc1 | -2.4
CCOC(=O)CSc1c(-c2cccs2)[nH]c2ccccc12 | 1.2
Cn1c(SCC(N)=O)nnc1-c1cnccn1 | -0.4
COc1cc(CN2CC(=O)N(c3cc(Cl)ccc3C)C2=S)cc(OC)c1OC | -2.0
CN(Cc1ccccc1)C(=O)c1ccc(NC(=O)Cc2cccc(NC(=O)C3CCCN(C(=O)C4CCC4)C3)c2)cc1 (stereo not given) | -1.3
COc1ccccc1NC(=O)C1CCCN(C(=O)Nc2ccc(F)cc2)C1 (stereo not given) | -0.2
COc1cc(/C=C2\NC(=S)N(C)C2=O)ccc1OCc1ccccc1F | -1.8
Cc1ccc(OCC(=O)N/N=C/c2ccc([N+](=O)[O-])o2)cc1 | -0.2
Cc1ccc(S(=O)(=O)CCC(=O)OCc2ccc(Cl)c(Cl)c2)cc1 | -1.7
CC1CCN(c2nc3nonc3nc2Nc2ccc(F)cc2)CC1 | 4.0
CC(C)CCn1c(=O)c2ccccc2n2c(CCC(=O)NC3CCN(Cc4ccccc4)CC3)nnc12 | 2.1
Cc1ccc(C(=O)C2=C(O)C(=O)N(Cc3ccco3)C2c2cccc(Br)c2)o1 (stereo not given) | 3.0
O=C(CNC(=O)N1CC(=O)Nc2ccccc21)NCc1cccc(Cl)c1 | -0.7
CCOc1ccc(N2C(=O)CSC23CCCCC3)cc1 | 6.4
CCN(C(=O)CSc1nnc(-c2ccncc2)o1)c1ccccc1 | -1.3
Cc1cc(C(=O)COC(=O)Cc2n[nH]c(=O)c3ccccc23)c(C)n1-c1cccc(C(F)(F)F)c1 | 0.7
Cc1cccc(-c2nnc(SCC(=O)N3c4ccccc4CCc4ccccc43)n2C)c1 | 1.5
COc1ccccc1C(=O)NCC(=O)N1CCN(C/C=C/c2ccccc2)CC1 | -0.4
O=c1oc2c(CN3CCCCC3)c(O)ccc2c2c1CCCCC2 | -0.4
CC(C)(C)NC(=O)COC(=O)Cc1ccc(Cl)cc1 | -0.9
COc1cc(CNc2ccc(O)cc2)cc(Br)c1OCc1ccccc1 | 0.0
Cc1[nH]c2ccccc2c1-c1csc(NC(=O)CN2CCOCC2)n1 | -3.2
CCN(CC)S(=O)(=O)c1cccc2c(N(C)C)cccc12 | -0.8
COc1ccc(OC)c(NC(=O)C(=O)NNC(=O)c2cccs2)c1 | -1.8
Cn1c(=O)c2nc(-c3ccccc3)c(-c3ccccc3)nc2n(C)c1=O | 0.6
CN(C(=O)CSc1nc(-c2ccccc2)cn1N)C(c1ccccc1)c1ccccc1 | 0.1
COc1ccc(/C=C/C(=O)c2cc(F)ccc2OC(=O)c2ccccc2)cc1OC | -1.1
Nc1ccccc1-n1cccc1 | 3.3

Structural class, the compounds so far containing a COOH group (three)
SMILES | STK33 inh
CN(Cc1ccccc1)C(=O)c1ccccc1C(=O)O | -0.6
CN(C(=O)Cn1nc(C(=O)O)c2ccccc2c1=O)C1(C#N)CCCCC1 | -1.5
O=C(O)Cc1csc(-c2ccc(F)cc2)n1 | -1.2

New compounds follow.
SMILES | STK33 inh
Cc1nc2ccccn2c1C(=O)CSc1ccc(Cl)cc1Cl | 1.9
O=C(c1cccc(S(=O)(=O)N2CCc3ccccc32)c1)N1CCN(c2ccccn2)CC1 | -0.4
COc1ccc(/C=C2/NC(=O)N(CC(=O)Nc3cccc(C)c3)C2=O)cc1O | -0.9
COc1cc(/C=N/n2cnnc2)ccc1OCCSc1ccc(C)cc1 | -1.8
COc1ccccc1CN1CCNC(=O)C1CC(=O)N(C)Cc1nc(C)cs1 (stereo not given) | 0.7
COC(=O)C1=NN(C(=O)c2ccc(C)cc2)C(O)(c2ccc(Cl)cc2)C1 (stereo not given) | 1.4
Cc1nc(N2CCN(Cc3ccc(Cl)cc3)CC2)c2oc3ccccc3c2n1 | -0.9
Cc1nc2c(C(=O)NCc3cccs3)cnn2c(C)c1Cc1ccccc1 | 0.0
CCCC(c1nnnn1CS(=O)(=O)c1ccc(C)cc1)N1CCC(C(N)=O)CC1 (stereo not given) | 0.6
CC1(C)C2CC=C(/C=N/NC(=O)C(N)=O)C1C2 (stereo not given) | -1.2
Nc1nonc1-c1nc2ccccc2n1Cc1ccc(F)cc1 | -0.9
Clc1ccc(SCc2cn3cccnc3n2)cc1 | 1.1
COc1ccc(CN(C(=O)c2ccc(C)cc2)C2CCS(=O)(=O)C2)cc1 (stereo not given) | 0.5
Cc1cc(C)nc(NN2C(=O)/C(=C/c3ccc(O)cc3)SC2=S)n1 | 0.7
Cc1ccc(NC(=O)CN(C)C(=O)COC(=O)c2oc3ccccc3c2C)cc1 | -1.6
O=[N+]([O-])c1cccnc1NCCc1ccccc1 | 0.4
N#CC1=C(SCC(=O)c2ccc(Br)cc2)NC2=C(C(=O)CCC2)C1c1ccco1 (stereo not given) | -1.2
C/C(=N\NC(=O)c1nc(C)cc(C)n1)c1ccccc1 | 0.9
CCC(=O)Nc1ccccc1C(=O)N1CCOCC1 | -0.5
CCN(CC)c1ccc(S(=O)(=O)N2CCOCC2)cc1NC(=O)CN1C(=O)NC2(CCCC2)C1=O | -0.7
O=C(O)c1ccn2c(C(=O)c3ccc(Cl)cc3)c(-c3ccccc3)cc2c1 | -1.7
Cc1ccc(NC(=O)c2sc3nc(N4CCOCC4)c4c(c3c2N)CC(C)(C)OC4)cc1 | -1.6
CCCc1[nH]nc2c1C(c1ccc(OC(=O)N3CCOCC3)cc1)C(C#N)=C(N)O2 (stereo not given) | 2.5
N#Cc1sc2nc3c(c(-c4cccnc4)c2c1N)CCC3 | -1.0
COC(=O)c1ccc(S(=O)(=O)NCCSc2nnc3c4ccccc4n(C)c3n2)cc1 | -1.3
COc1ccc(Cl)cc1N/C(N)=N/c1nc(C)cc(=O)[nH]1 | 1.2
CN1CCN(c2ccc(S(=O)(=O)N3CCOCC3)cc2NC(=O)COc2ccc(F)cc2Cl)CC1 | -0.7
CC(=O)Nc1nc2ccccc2n1Cc1ccccc1C | -0.7
COC(=O)c1ccc(NC(=O)CSc2nccn2CCc2ccccc2)cc1 | -0.8
COc1cc(C)nc(N2CCCC(C(=O)NCC(C)C)C2)n1 (stereo not given) | -3.7
C/C(=C\[C@@H](NP(=O)(c1ccccc1)c1ccccc1)c1ccccc1)CO[Si](c1ccccc1)(c1ccccc1)C(C)(C)C | -0.5
N#Cc1ccccc1S(=O)(=O)N1CCN(C(=O)CN2CCCSc3ccccc32)CC1 | -3.0
CC(CCCC(C)(C)O)NC(=O)c1ccc(OC2CCN(C(=O)C3CC3)CC2)cc1 (stereo not given) | -2.1
N#Cc1ccccc1S(=O)(=O)N1CCN(C(=O)CN2CCCC2c2cccs2)CC1 (stereo not given) | 1.1
COc1ccccc1OCC(=O)Nc1ccc2c(c1)n(C)c(=O)n2C | 1.4
C=CCn1c(COc2ccccc2)nnc1SCC(=O)N/N=C/c1ccc(C)cc1 | -0.8
